# GCN5L2 inh: qHTS Assay for Inhibitors of GCN5L2; AID 504327, 2011; hit rate 0.21% among 390,000; Histone acetyltransferase KAT2A (Homo sapiens), Q92830; GCN5L2 HAT assay, ThioGlo1 CoA-SH fluorescence; Potency, µM (doses to about 58.9 µM), for inactives: at the highest dose activity change, negative = inhibition, usual class: inhibitors
# Target sequence (Q92830 whole entry, looked up): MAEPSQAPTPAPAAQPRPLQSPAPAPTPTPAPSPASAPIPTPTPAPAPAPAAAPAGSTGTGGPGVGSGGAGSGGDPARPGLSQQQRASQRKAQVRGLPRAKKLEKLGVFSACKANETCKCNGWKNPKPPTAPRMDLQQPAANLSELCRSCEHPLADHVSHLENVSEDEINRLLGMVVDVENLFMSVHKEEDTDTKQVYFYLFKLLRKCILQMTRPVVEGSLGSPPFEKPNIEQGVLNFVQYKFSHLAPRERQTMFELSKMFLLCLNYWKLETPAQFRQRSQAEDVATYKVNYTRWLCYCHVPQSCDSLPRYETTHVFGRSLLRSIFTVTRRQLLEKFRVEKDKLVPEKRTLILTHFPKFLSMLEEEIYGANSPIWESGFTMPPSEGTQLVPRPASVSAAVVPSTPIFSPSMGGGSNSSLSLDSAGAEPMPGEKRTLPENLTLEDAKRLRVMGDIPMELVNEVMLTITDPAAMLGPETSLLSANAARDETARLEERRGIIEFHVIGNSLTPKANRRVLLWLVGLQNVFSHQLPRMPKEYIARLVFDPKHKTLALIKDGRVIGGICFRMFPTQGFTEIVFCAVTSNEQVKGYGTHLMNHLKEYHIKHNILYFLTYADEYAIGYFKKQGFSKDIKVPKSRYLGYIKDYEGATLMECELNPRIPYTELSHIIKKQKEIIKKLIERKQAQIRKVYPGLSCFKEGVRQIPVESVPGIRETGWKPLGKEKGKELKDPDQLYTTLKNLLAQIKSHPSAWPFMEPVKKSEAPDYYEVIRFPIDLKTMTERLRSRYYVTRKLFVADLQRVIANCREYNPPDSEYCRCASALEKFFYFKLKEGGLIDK
#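 Preincubate 20nM GCN5L2 with compound 15 min, RT → add 50uM ThioGlo1 + 75uM H3(1-25) + 70uM acetyl-CoA → read fluorescence 0 and 20 min. Primary qHTS; fluorescent artifacts likely.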
# FEN1 inh: qHTS Assay for the Inhibitors of Human Flap endonuclease 1 (FEN1). P39748. Recombinant FEN1 flap cleavage, fluorescence, 15 min. Potency, µM (titrated, usually from 114 µM), without a hit: at the top dose activity change, negative = inhibition, most hits filed as inhibitors. hit rate 0.35% among 390,000. AID 588795, 2011; further: nearly all actives have a fitted effect of over 65% in size
#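 In this screen, 50 nM flap DNA substrate was added to 10 nM FEN1 pretreated with compound for 15 min at room temperature; cleavage was followed with reads at 0 and 15 min, and Hill fitting gave concentration–response parameters.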
# Starred values were filed as active, the others as inactive; ? = inconclusive; · = not tested or not shown; & = joins results of further samples; [ ] = remark or other dose. The call rests on the fitted dose curve; in most records, active means well fitted curve in the direction sought with a large enough effect; inconclusive means small, poorly fitted or top-dose-only effect, or another doubt; inactive means no such curve, though single readings can be large; an effect the other way counts as inactive or inconclusive. On the % scale 0 is the no-effect control and ±100 the full control effect; potency means the concentration at half of the fitted maximal effect. Some of the compounds tested, and most or all hits are left out here.
SMILES,GCN5L2 inh,FEN1 inh
Cc1[nH]c2ccccc2c1C1C(c2ccccc2)=NN=C(C(C)C)N1O (configuration not stated),-1.8%,-19.5%
COc1ccc(-n2c(-c3ccco3)n[nH]c2=S)cc1,-5.3%,-2.1%
CCOc1cc(N2CCOCC2)c(OCC)cc1NC(=O)c1ccc2ncsc2c1,-4.9%,2.0%
O=C(Cc1ccc(Br)cc1)N1CCN(c2ccc(F)cc2)CC1,-1.3%[0.501 µM],-12.0%
CC(=O)Nc1ccc(S(=O)(=O)N2CCCCC2c2cccnc2)cc1 (configuration not stated),3.5%,-5.3%
CCSc1ncnc2nc[nH]c12,·,10.6%
CCOc1ccc(NC(=O)CCCN2C(=O)C(c3ccccc3)Oc3cccnc32)cc1 (configuration not stated),-1.5%&-0.5%,-2.5%&-3.0%
COc1cc2c(cc1OC)C(c1ccc(Br)cc1)CC(=O)N2 (configuration not stated),?,-4.7%
Cn1c(SCC(=O)N/N=C/c2ccncc2)nc2ccccc21,-9.2%,1.4%
CC(=O)Nc1ccc(NC(=O)COC(=O)[C@@H](NC(=O)c2ccc(F)cc2)C(C)C)cc1,-1.6%,-11.5%
Cc1cccc(NC(=O)CN(C)S(=O)(=O)c2ccc3c(c2)c(=O)n(C)c(=O)n3C)c1C,-5.4%,12.5%
CCOC(=O)Cn1nc(C)n(-c2ccccc2)c1=O,-3.8%,-6.7%

# A different layout for part of the listing above:
# Each structure is followed by: GCN5L2 inh, FEN1 inh
Cn1c(SCC(=O)N/N=C/c2ccncc2)nc2ccccc21
    -9.2%, 1.4%
O=C(Cc1ccc(Br)cc1)N1CCN(c2ccc(F)cc2)CC1
    -1.3%[0.501 µM], -12.0%
COc1cc2c(cc1OC)C(c1ccc(Br)cc1)CC(=O)N2 (configuration not stated)
    ?, -4.7%
COc1ccc(-n2c(-c3ccco3)n[nH]c2=S)cc1
    -5.3%, -2.1%
CCOC(=O)Cn1nc(C)n(-c2ccccc2)c1=O
    -3.8%, -6.7%

# Next section:
SMILES,GCN5L2 inh,FEN1 inh
OC[C@H]1O[C@H](OCCc2ccc(O)cc2)[C@H](O)[C@@H](O)[C@@H]1O,-1.1%,5.0%
COc1ccc(NC(=O)Nc2cccc3c2O[C@@H](CN(C)S(=O)(=O)c2cn(C)cn2)[C@@H](C)CN([C@H](C)CO)C3=O)cc1,-1.2%,2.4%
CCOc1ccc(C(=O)c2cn(CC(=O)Nc3ccc(C)c(C)c3)c3ccc(OCC)cc3c2=O)cc1,-1.2%,5.6%
Cc1c(NC(=O)c2ccc3nsnc3c2)cccc1[N+](=O)[O-],-5.9%,-16.2%
COc1ccc(-n2c(Cc3cccn3C)nnc2SCC(=O)Nc2ccc(Cl)cc2)cc1,-11.5%,-8.0%
CC1(C)C2CC=C(/C=N/NC(=S)Nc3cccnc3)C1C2 (configuration not stated),-16.2%,-9.8%
CCOc1ccc(C(C)(O)CN2CCOCC2)cc1 (configuration not stated),?,1.3%
CC(OC(=O)CCCN=C1NS(=O)(=O)c2ccccc21)C(=O)NC1CCCCC1C (configuration not stated),3.0%,0.5%
Cn1nc(-c2ccccc2)c(C(=O)NC(C(=O)O)c2ccccc2)c1Cl (configuration not stated),-2.5%,3.1%
CCc1ccc(NC(=O)N2CCC(c3ccccc3)C2)cc1 (configuration not stated),1.5%,8.6%
CCN(C1CCCCC1)S(=O)(=O)c1ccc(C(=O)O)cc1,-27.3%,-15.4%
Cc1ccc(-c2noc(-c3ccc(N4CCN(C)CC4)c([N+](=O)[O-])c3)n2)cc1,-6.0%,5.2%
COc1ccc(N=c2oc3ccc(OC)cc3cc2-c2nc3ccccc3[nH]2)cc1,·,-1.4%
CN1CCC(=NNC(=O)CN(c2ccc(Oc3ccccc3)cc2)S(C)(=O)=O)CC1,-3.0%,-7.4%
O=c1[nH]c(=O)n([C@@H]2O[C@H](CO)[C@@H](O)[C@H]2O)cc1F,-9.7%,-9.8%
COc1ccccc1N1CCN(C(=O)CSc2nc3ccccc3[nH]2)CC1,-6.0%,-17.3%
O=C(NCCCN1CCOCC1)c1ccc(CS(=O)(=O)c2c(Cl)cccc2Cl)o1,-0.7%,2.3%
CC(C)(C)c1ccccc1OCC(=O)NCCCn1ccnc1,2.0%,4.3%
Cc1ccccc1OCC(=O)Nc1cc(S(=O)(=O)N2CCCCC2)ccc1N1CCN(C)CC1,-8.1%,-22.0%
O=C(C1CCC1)N1CCN(c2ccnc3cc(Cl)ccc23)CC1,8.6%,14.6%
CN1C(C(=O)NCc2ccc(OC(F)(F)F)cc2)CC2Cn3c(nc4ccccc43)C21 (configuration not stated),17.1%,-1.8%
O=C(NC1C(=O)NNC1c1ccc(Cl)cc1)c1ccc(F)cc1 (configuration not stated),-2.1%,-2.2%
COc1cc2c(cc1OC)CN(C(=O)c1cc(S(=O)(=O)N3CCOCC3)c(Cl)cc1Cl)CC2,-7.6%,13.8%
CCC(=O)N[C@@H]1CC(C(C)(C)NC(=O)CC)CC=C1C (some centres not stated),0.5%,2.5%

# Quoted at random: two compounds from above.
SMILES,GCN5L2 inh,FEN1 inh
COc1ccccc1N1CCN(C(=O)CSc2nc3ccccc3[nH]2)CC1,-6.0%,-17.3%
Cc1ccccc1OCC(=O)Nc1cc(S(=O)(=O)N2CCCCC2)ccc1N1CCN(C)CC1,-8.1%,-22.0%

# The list goes on.
SMILES,GCN5L2 inh,FEN1 inh
Cn1c(=NC(=O)CS(=O)(=O)c2ccccc2)sc2ccccc21,-1.6%,0.4%
Cc1ccccc1SCc1noc(C(=O)NC(C)C)c1C(=O)O,1.3%,-12.7%
C[C@H](NC(=O)c1ccccc1)C(=O)N1CCC2(CC1)NCCc1[nH]cnc12,1.4%,1.3%
Cc1cc(NC(=O)CCC(=O)N(Cc2cccs2)C(C(=O)NC2CCCC2)c2ccccc2)no1 (configuration not stated),-1.6%,-11.2%
COc1ccc(N(CC(=O)NCc2ccc(F)cc2)C(=O)Cn2nnc(-c3ccc(C)o3)n2)cc1OC,0.5%,-2.0%
O=C(Nc1cccc(-c2cn3c(n2)SCC3)c1)c1ccc2ccccc2n1,-8.5%,3.6%
O=C(Nc1ccc(F)cc1F)c1ccco1,·,0.9%
C/C=C/c1ccc(OCC(=O)Nc2cc(S(=O)(=O)N3CCOCC3)ccc2N2CCCC2)c(OC)c1,-13.0%,-9.3%
S=C(Nc1ccccc1)N(CCN1CCOCC1)Cc1cccc(Cl)c1,1.0%,-9.1%
COc1ccc(C(C(=O)OCCN(C)C)c2ccccc2)cc1 (configuration not stated),-0.4%,7.5%
CCOc1cc(CNCc2ccc(C(=O)O)cc2)ccc1OC,-3.4%,8.6%
NC(=O)c1ncc(C(F)(F)F)cc1Oc1cccnc1,2.0%,1.8%
COc1nc(-c2ccccc2)ccc1-c1noc(-c2ccccc2Br)n1,-0.9%,2.0%
COc1ccc(CNc2ccc(N3CCOCC3)cc2)cc1,3.4%,-2.9%
O=C1NC[C@H](c2ccccc2)OC(=O)[C@@H](Cc2ccc(F)cc2)CC/C=C/C[C@H]1CC(=O)N(CCO)Cc1ccccc1,-9.7%,?
O=C(Nc1nnc(-c2ccncc2)o1)c1ccccc1,-18.1%,-2.0%
COC(=O)CN(c1ccccc1)S(=O)(=O)c1ccccc1,3.9%,7.9%
O=C(Nc1ccc2c(c1)CCCN2C(=O)c1cccs1)c1c(F)cccc1Cl,-4.6%,10.3%
O=C(Nc1ccccc1)N1CCC(n2c(=O)[nH]c3ccccc32)CC1,-2.9%,13.8%
Cc1csc(SCC(=O)N2CCN(S(=O)(=O)c3ccc(Cl)cc3)CC2)n1,3.4%,-5.0%
CCCc1nn(C)c(C(=O)Nc2cccc(C)c2)c1Cl,-8.6%,-7.6%
CC(C)CCNC(=O)c1ccc(CS(=O)(=O)Cc2ccccc2F)o1,-0.7%,-1.8%
Cc1cc(C)nc(N(C#N)Cc2ccccc2Cl)n1,-8.1%,-3.0%
COC(=O)c1ccc(CSc2nc3c([nH]c4ccccc43)c(=O)n2-c2ccc(F)cc2)o1,2.2%,-16.7%

# Some values from above:
# In GCN5L2 inh, O=C1NC[C@H](c2ccccc2)OC(=O)[C@@H](Cc2ccc(F)cc2)CC/C=C/C[C@H]1CC(=O)N(CCO)Cc1ccccc1 is entered as -9.7%
# In FEN1 inh, COC(=O)c1ccc(CSc2nc3c([nH]c4ccccc43)c(=O)n2-c2ccc(F)cc2)o1 is entered as -16.7%
# In FEN1 inh, COC(=O)CN(c1ccccc1)S(=O)(=O)c1ccccc1 is entered as 7.9%
# In FEN1 inh, COc1ccc(CNc2ccc(N3CCOCC3)cc2)cc1 is entered as -2.9%
# In FEN1 inh, Cc1csc(SCC(=O)N2CCN(S(=O)(=O)c3ccc(Cl)cc3)CC2)n1 is entered as -5.0%
# In GCN5L2 inh, O=C(Nc1nnc(-c2ccncc2)o1)c1ccccc1 is entered as -18.1%
# In FEN1 inh, O=C(Nc1ccc2c(c1)CCCN2C(=O)c1cccs1)c1c(F)cccc1Cl is entered as 10.3%

# (further entries)
SMILES,GCN5L2 inh,FEN1 inh
CCc1cc2c(NCC3CCCO3)ncnc2s1 (configuration not stated),-1.5%,3.3%
CCOC(=O)c1c(C)c(C(=O)NCCc2ccccc2)c(C)n1C,-2.2%,3.4%
CCCC1=Nc2cc(C(=O)N3CCN(c4ccccn4)CC3)ccc2Sc2ccc(C)cc21,-15.9%,-20.2%
CCOc1ccc(S(=O)(=O)N2CCCC(C(=O)N3CCN(CC)CC3)C2)cc1Cl (configuration not stated),-0.6%,-18.7%
Cc1ccc(-c2nc(NC(=O)CSc3ncnc4sc5c(c34)CCC(C)C5)ns2)cc1 (configuration not stated),-7.4%,16.4%
CCCCc1oc2ccccc2c1C(=O)c1cc(I)c(OCCN(CC)CC)c(I)c1,-8.3%,?
NC(=O)Cn1c(=O)n(CCCCCC(=O)NCc2ccccc2)c(=O)c2sccc21,-2.6%,-1.6%
O=C(CCCCn1c(=O)c2ccccc2n(Cc2ccccc2Cl)c1=O)NCCc1ccccc1,-2.2%,7.0%
CCOC(=O)c1cnc2c(-c3ccccc3)cnn2c1C,-3.0%,4.3%
O=c1c([N+](=O)[O-])c(N2CCOCC2)c2ccccc2n1Cc1ccccc1,0.0%,-15.0%
COc1cc(OC)cc(C(=O)NCc2nc(-c3ccccc3)no2)c1,0.4%,-2.1%
O=C(CN(Cc1ccco1)C(=O)c1ccc(F)cc1F)Nc1ccccc1C(F)(F)F,-3.5%,12.3%
Cc1cccc(C)c1NC(=O)CS(=O)CC(=O)NCC1OCCc2ccccc21 (configuration not stated),0.4%,15.5%
Cc1ccc2nc(-c3ccncc3)cc(C(=O)N3CCOCC3)c2c1,-9.4%,2.0%
CCc1ccc(CNCc2c(C(=O)O)c(C)n(Cc3c(F)cccc3Cl)c2C)cc1,-1.6%,13.2%
Cc1nnc(NC(=O)c2c(F)c(F)c(F)c(F)c2F)s1,2.6%,-6.0%
COc1ccc(CNC(=O)Cc2ccc(NC(=O)N3CCSc4ncccc43)cc2)cc1,-8.7%,-1.4%
O=C1C2C3c4ccccc4C(Br)(c4ccccc43)C2C(=O)N1c1ccccc1O (configuration not stated),-5.5%,0.0%
COc1ccc(S(=O)(=O)NCCOc2ccccc2)cc1F,-3.4%,-13.2%
Cc1ccc(C)c(OCCSc2nnc(-c3cccnc3)n2N)c1,-2.6%,7.3%
Cc1nn2c3ccccc3nc2n(C)c1=O,-3.9%,-0.5%
O=C(NCc1ccc2c(c1)OCO2)c1cccc(S(=O)(=O)N2CCCCC2)c1,1.5%,7.6%
O=C(c1ccco1)N1CCN(C(=O)C2CC(=O)N(c3ccccc3)C2)CC1 (configuration not stated),-1.1%,2.2%
Cc1cc(Cl)ccc1Oc1ncnc2oc(-c3ccccc3)cc12,-10.0%,-1.2%
O=C(COc1ccc(Br)cc1)Nc1ccc2oc(=O)ccc2c1,-23.3%,2.8%
COCCCNCCOCCSc1ccc(Cl)cc1,1.2%,0.6%
O=S(=O)(Cc1ccc(Cl)cc1)N1CCCC1,-1.2%,1.9%
CC(=O)NC(Cc1c[nH]c2ccccc12)C(=O)NCc1ccco1 (configuration not stated),-4.4%,6.7%
Cc1sc2c(=O)n3c(nc2c1C(=O)NC1CCCCC1)CCCCC3,-4.4%,-6.5%
c1nc2sc3c(c2c2nnnn12)CCCC3,1.3%,-15.8%
CCOC(=O)C(=CNc1ccccc1C)C(=O)OCC,-2.9%,5.0%
CCN(C[C@H]1N[C@@](Cc2ccccc2)(C(=O)OC)[C@H]2C(=O)N(C)C(=O)[C@@H]12)S(=O)(=O)c1ccc(-c2ccccc2)cc1,-4.0%,-19.4%
CCN(CC)S(=O)(=O)c1ccc(/C=C/C(=O)Nc2ccc(F)c(F)c2F)cc1,-2.8%,8.4%
Cc1ccsc1/C=N/N1CCN(c2ccccn2)CC1,-3.4%,-9.6%
COc1ccc(CNC(=O)C2CCC(CNc3c(N4CCOCC4)c(=O)c3=O)CC2)cc1 (configuration not stated),-17.2%,-4.8%&20.7%
O=C(O)c1cccc(C(=O)O)c1,14.0%,22.9%
COc1ccc(C(=O)c2ccc(N3CCOCC3)c([N+](=O)[O-])c2)cc1,-1.5%,0.1%
O=C(CNC(=O)c1ccccc1)OCc1cc(=O)n2ccsc2n1,3.1%,-0.2%
CN(C)CCN(C(=O)CCS(=O)(=O)c1ccccc1)c1nc2cc3c(cc2s1)OCO3,-6.0%,-2.3%
CCOC(=O)CNc1nc(Cl)nc(NC(C)(C)C)n1,0.6%,12.1%
CS(=O)(=O)c1ccc2nnn(OCC(=O)Nc3ccc(Br)cc3Br)c2c1,-14.6%,9.9%

# From PubChem
